# KCNQ2 block = KCNQ2 potassium channel inhibitors, primary screen, cell-based, CHO-K1, FluxOR thallium flux, B-score (AID 2156); O88943; 20 min; active compounds read low; only compounds with negative scores are shown here; some inactives read as strong as hits; B-score at 10 µM; 310,000 tested, 1.1% active;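 active = fluorescence ratio B-score at most minus 3 library SDs, with starting brightness B-score within 2 library SDs, cut at about -5.5 in these data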
# Target sequence (O88943 whole entry, looked up): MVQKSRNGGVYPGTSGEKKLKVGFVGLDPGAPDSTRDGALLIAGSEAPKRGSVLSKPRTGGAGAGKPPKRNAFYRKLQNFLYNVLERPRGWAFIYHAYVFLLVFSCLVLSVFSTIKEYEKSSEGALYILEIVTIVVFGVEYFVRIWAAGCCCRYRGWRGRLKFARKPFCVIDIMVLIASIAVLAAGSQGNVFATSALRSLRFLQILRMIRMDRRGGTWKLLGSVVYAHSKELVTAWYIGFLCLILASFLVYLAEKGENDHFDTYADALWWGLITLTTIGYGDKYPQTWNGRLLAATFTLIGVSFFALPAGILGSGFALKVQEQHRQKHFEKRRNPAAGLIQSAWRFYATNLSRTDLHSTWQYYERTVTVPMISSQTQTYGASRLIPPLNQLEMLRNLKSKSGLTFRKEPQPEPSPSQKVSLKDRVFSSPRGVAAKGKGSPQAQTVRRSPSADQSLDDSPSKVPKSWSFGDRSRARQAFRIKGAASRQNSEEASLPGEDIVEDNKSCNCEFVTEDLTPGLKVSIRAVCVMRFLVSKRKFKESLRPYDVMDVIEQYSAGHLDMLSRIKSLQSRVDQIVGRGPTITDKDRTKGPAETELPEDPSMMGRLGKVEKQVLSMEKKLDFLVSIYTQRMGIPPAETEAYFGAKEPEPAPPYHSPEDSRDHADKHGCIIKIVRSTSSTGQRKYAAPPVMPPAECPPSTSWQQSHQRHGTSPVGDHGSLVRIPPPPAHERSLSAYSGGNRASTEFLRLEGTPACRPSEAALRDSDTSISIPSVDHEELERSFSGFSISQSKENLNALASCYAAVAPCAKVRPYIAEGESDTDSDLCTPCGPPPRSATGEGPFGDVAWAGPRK
# KCNQ2 block baseline = recorded beside KCNQ2 block, whose call it bears; B-score; measured here: initial fluorescence intensity artifact check;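 brightness before thallium and not channel activity; 0 = typical well and far values either way flag optical interference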
# An asterisk follows results filed as active; i = inactive. A portion of the library. The share of hits here may be higher or lower than overall.
# Every second line gives: KCNQ2 block	KCNQ2 block baseline
1	O=C(CN1C(=O)NC2(CCCC2)C1=O)N1CCN(S(=O)(=O)c2ccccc2F)CC1
 : i	0.19
2	CN(C)N1C(N)=C(C#N)C(c2ccc3c(c2)OCO3)C2=C1CCCC2=O (stereo not drawn)
 : i	-0.03
3	O/N=C/c1cccc[n+]1CCCCCC[n+]1ccccc1/C=N/O
 : i	5.2
4	CCc1cccc(NC(=O)Cn2c(=O)c3cccn3c3ccccc32)c1
 : i	-0.5
5	O=C(Nc1nc2ccccc2[nH]1)C1CCN(S(=O)(=O)c2cccs2)CC1
 : i	-0.06
6	COC(=O)[C@H](CCSC)NC(=O)NCc1ccccc1F
 : i	0.34
7	Cc1cc(C)c(NC(=O)C2CCCN2CCC(C)C)c(C)c1 (stereo not drawn)
 : i	2
8	COc1ccc(C(CC(=O)c2ccccc2)S(=O)(=O)c2ccc(C)cc2)cc1 (stereo not drawn)
 : i	0.97
9	Cc1ccc(NC(=O)c2cc(Cl)ccc2[N+](=O)[O-])cc1C
 : i	-0.3
10	COc1ccc(CN2CCN(CCC(C)C)C(CCO)C2)cc1Cn1cccn1 (stereo not drawn)
 : i	-1.7
11	CCN(CC)S(=O)(=O)c1ccc(-c2nnc(SCC(=O)N3c4ccccc4CC3C)o2)cc1 (stereo not drawn)
 : i	0.27
12	O=c1c2c(n3cnnc3n1C1CCCCC1)-c1ccccc1CC21CCCCC1
 : i	0.73
13	COc1ccc2cc(C(C)C(=O)NC3CCC(O)CC3)ccc2c1 (stereo not drawn)
 : i	-0.07
14	COc1ccc(OC(=O)c2cc3ccccc3o2)cc1
 : i	-1
15	O=C(O)CCNC1C=CS(=O)(=O)C1 (stereo not drawn)
 : i	0.82
16	CCCC1c2ccc(C)n2CCN1C(=O)Nc1ccccc1Cl (stereo not drawn)
 : -7.2*	-0.32*
17	Cc1csc(NC(=O)CSc2nccn2C)n1
 : i	0.33
18	O=C(NC1CC1)c1ccc(NS(=O)(=O)c2ccccc2)cc1
 : i	-1.6
19	CCC(=O)Oc1ccc2ccccc2c1CNC(=O)c1ccccc1
 : i	0.05
20	COC(=O)CCCC1=CC2=C(c3ccccc3)C(=O)C(C)(OC(=O)C3CCCC3)C(=O)C2=CN1Cc1ccco1 (stereo not drawn)
 : i	0.94
21	CCOc1ccc(CCNC(=O)CSc2ncn[nH]2)cc1OCC
 : i	1.4
22	COc1ccc(NC(=O)C2CCCN(S(=O)(=O)c3c(C)n[nH]c3C)C2)c(OC)c1 (stereo not drawn)
 : i	-0.74
23	O=C(NCCc1cccc(Cl)c1)c1cc([N+](=O)[O-])ccc1Cl
 : i	0.2
24	Nc1ccc(C(=O)NNC(=O)C2COc3ccccc3O2)cc1[N+](=O)[O-] (stereo not drawn)
 : i	-0.49
25	COCCN(CCOC)C(=O)c1sc2nc(-c3ccccc3)cn2c1C
 : i	-0.04
26	CC(C)(C)OC(=O)N[C@@H](CCCCNC(=O)OCc1ccccc1)c1nnc([C@H](CCCCNC(=O)OCc2ccccc2)NC(=O)OC(C)(C)C)o1
 : i	0.68
27	Clc1ccc(-n2ncc3c(N4CCCC4)ncnc32)cc1
 : i	3.7
28	c1ccc(SCc2nc(-c3ccncc3)n[nH]2)nc1
 : i	1.4
29	O=C(COC(=O)CCc1c[nH]c2ccccc12)NCCc1ccccc1
 : i	-0.03
30	O=C(CCn1c(=O)oc2ccccc21)Nc1cccc(Cl)c1
 : i	-0.18
31	COc1cccc(NC(=S)N2CCn3cccc3C2c2cccnc2)c1 (stereo not drawn)
 : i	-0.24
32	COc1ccc(C)cc1NC(=O)CCc1c(C)nn(-c2ccc(N3CCCCC3)nn2)c1C
 : i	0.09
33	CCCc1cc(=O)[nH]c(SCC)n1
 : i	-2.2
34	COc1ccc(-c2noc(N3CCCC(C(=O)Nc4ccc(C(C)=O)cc4)C3)n2)cc1 (stereo not drawn)
 : i	0.76
35	Cc1[nH]c2ccccc2c1C(=O)CCl
 : i	-0.27
36	COC(=O)CSc1ncnc2scc(-c3ccccc3)c12
 : i	2.4
37	CCOC(=O)CNc1nc(OCC#N)nc(N2CCOCC2)n1
 : i	0.59
38	O=C(NC(NC(=S)N1CCOCC1)C(Cl)(Cl)Cl)c1cccc2ccccc12 (stereo not drawn)
 : i	-0.25
39	O=C(NCc1ccc2c(c1)OCO2)c1cc(COc2c(F)cccc2F)on1
 : i	0.65
40	Cc1cc(C)cc(OCC(=O)NCCN2CCOCC2)c1
 : i	-0.05
41	COc1ccccc1C(CNC(=O)c1cccc(NS(=O)(=O)c2ccc(Br)cc2)c1)N(C)C (stereo not drawn)
 : i	0.89
42	CC(C)c1ccc(OCc2ccc(C(=O)O)o2)cc1
 : i	1.9
43	COc1cc(/C=C\C(=O)Nc2cc(=O)n(C)c(=O)n2C)cc(OC)c1OC
 : i	-1.4
44	CN(Cc1ccccc1)C1CCCN(C(=O)c2ccc(Cl)s2)C1 (stereo not drawn)
 : i	4.8
45	COc1cc(NC(=O)c2cccs2)c(OC)cc1NC(=O)CCC(=O)Nc1cccc2ncccc12
 : i	-1.5
46	COc1ccc(NC(=S)NCc2cccs2)cc1OC
 : i	0.66
47	COc1cc2c(cc1OC)C(c1ccccc1)NCC2 (stereo not drawn)
 : i	-0.7
48	CC(C)OC(=O)c1nn2c(C(F)(F)F)cc(-c3ccco3)nc2c1Cl
 : i	-0.06
49	CCCCOC(=O)n1ccc(C(=O)Nc2ccccc2OC)n1
 : i	2.1
50	C=CCn1c(SCC(=O)NCc2ccc3c(c2)OCO3)nc2scc(-c3ccc(F)cc3)c2c1=O
 : i	0.02
51	CCOC(=O)C1(CCSC)NC(c2ccco2)C2C(=O)N(C)C(=O)C21 (stereo not drawn)
 : i	0.38
52	O=C(COc1ccccc1)NCc1cccs1
 : i	0.48
53	Cc1ccccc1C(=O)c1cccn1CC(=O)NCc1ccc2c(c1)OCO2
 : i	-0.06
54	Cc1ccc(-c2nc3ncccc3n2O)cc1
 : i	1.2
55	COc1ccc(CCN(Cc2ccccn2)C(=S)Nc2ccccc2F)cc1OC
 : i	-0.02
56	CCOc1ccc2nc(N/C(N)=N/C(=S)Nc3ccc(OC)cc3)nc(C)c2c1
 : i	2.9
57	O=C(c1ccc(-n2cncn2)c([N+](=O)[O-])c1)N1CCN(c2cccc(Cl)c2)CC1
 : i	-1.2
58	C=CCn1c(C)nnc1SCC(=O)Nc1oc(C)c2c(C)n[nH]c(=O)c12
 : i	-0.81
59	O=C(Nc1ccc(N2CCN(C(=O)c3cccs3)CC2)cc1)c1cccnc1Cl
 : i	0.55
60	Cc1noc(COc2ccccc2OCc2onc(C)c2Cl)c1Cl
 : i	-0.43

# Remaining list, next part
# Every second line gives: KCNQ2 block	KCNQ2 block baseline
61	O=C(NCC(c1cccs1)N1CCOCC1)c1ccc(Cl)s1 (stereo not drawn)
 : -9.7*	0.92*
62	CCC(=O)Nc1cccc(-c2csc(-c3ccccc3)n2)c1
 : i	-0.2
63	CCOC(=O)C[C@H]1c2cc(F)ccc2S(=O)(=O)N1C1CCCC1
 : i	-1.3
64	C=CCn1c(SCc2ccc(Cl)cc2)nc2c1c(=O)[nH]c(=O)n2C
 : i	0.62
65	CCCCC[C@H](O)/C=C/C1=C(CCCCCCC(=O)O)C(=O)CC1
 : i	0.64
66	COc1ccc(C2(c3ccc(OC)cc3)NC(=O)N(CC(=O)N(C)C)C2=O)cc1
 : i	0.09
67	O=C(N/N=C/c1cccnc1)c1cccc(Br)c1
 : i	1.4
68	Cc1ccc(-n2ncc3c(=O)[nH]cnc32)c(C)c1
 : i	-2.3
69	Cc1oc2cc3oc(=O)c(CC(=O)NCCC(=O)O)c(C)c3cc2c1C
 : i	-0.03
70	COc1ccccc1N1CCN(C(=O)CSc2nc3ccccc3o2)CC1
 : i	0.77
71	COc1cccc(NC(=S)NCc2cccnc2)c1
 : i	0.16
72	CS(=O)(=O)N(CC(=O)Nc1ccccc1C(=O)NCc1ccco1)c1ccc2c(c1)OCCO2
 : i	-2
73	O=C(COC(=O)c1cc(-c2ccccc2Cl)nc2ccccc12)Nc1ncc(C(F)(F)F)cc1Cl
 : i	0.34
74	CCCCN(CC)CCCNC(=O)c1csc2c1CCCCC2
 : i	-0.97
75	O=C(/C=C/c1ccccc1Cl)c1ccc(O)cc1
 : i	0.99
76	CC(C)N(Cc1nc(-c2ccc(Cl)cc2)no1)C(=O)/C=C/c1ccccc1
 : i	-0.02
77	Cc1ccc2cc3cc(C(=O)N(CC(=O)NC4CCCC4)c4cccc(C)c4C)sc3nc2c1
 : i	0.08
78	COc1ccc2c(c1)[nH]c1c(=O)n(CCC3=CCCCC3)cnc12
 : i	1.2
79	CCCSC1=C(C#N)C(c2cccnc2)C(C(=O)OCC)=C(c2ccccc2)N1 (stereo not drawn)
 : i	-0.82
80	O=C(CSc1cccc2cccnc12)OCC(=O)c1ccc(Br)cc1
 : i	-0.45
81	COc1ccccc1OCCn1cc(/C=N/n2cnnc2)c2ccccc21
 : i	-0.08
82	CCN(CC)c1ccc(S(=O)(=O)N2CCCCC2)cc1NC(=O)C1=COCCO1
 : i	0.57
83	Cc1ccc(CNC(=O)C(C(=O)NCc2ccc(C)o2)c2ncc(C(F)(F)F)cc2Cl)o1
 : i	-0.74
84	O=C(COC(=O)CC(NC(=O)c1ccccc1Cl)c1ccccc1)Nc1cccc(F)c1 (stereo not drawn)
 : i	-0.71
85	Cc1c(C(=O)O)cccc1-c1ccc(/C=N/n2cnnc2)o1
 : i	-0.65
86	CCOC(=O)c1oc2ccc(Br)cc2c1COC(=O)C1=COCCO1
 : i	1.4
87	CCOc1ccccc1NC(=O)c1cnccn1
 : i	-0.54
88	O=C(COC(=O)C(Cc1ccccc1)NC(=O)c1ccco1)NC1CC1 (stereo not drawn)
 : i	0.5
89	O=C(COC(=O)COc1ccc2ccccc2c1)NC1CCCc2ccccc21 (stereo not drawn)
 : i	1.2
90	CC1CCC(C(=O)NC(C(=O)N2CCN(c3ccccn3)CC2)C(C)C)CC1 (stereo not drawn)
 : i	1.1
91	O=C(c1ccc(C(F)(F)F)cc1)C1CCCN(Cc2cccn2-c2ncccn2)C1 (stereo not drawn)
 : i	0.86
92	CCCS(=O)(=O)c1nc(S(=O)(=O)c2ccc(C)cc2)c(N2CCC3(CC2)OCCO3)s1
 : i	1.1
93	COc1ccc(N2CC(C(=O)Nc3ccc(S(=O)(=O)N4CCOCC4)cc3)CC2=O)cc1 (stereo not drawn)
 : i	0.5
94	CC1NC(=O)NC1CCCCC(=O)O (stereo not drawn)
 : i	0.12
95	COC(=O)N/N=C(\C)c1ccccc1Br
 : i	0.3
96	COC(=O)CN(C(=O)CSc1nnc(-c2cccc(OC)c2)o1)c1ccc(OC)cc1
 : i	-0.12
97	COc1cc(NC(=O)CN2C(=O)COc3ccc(S(=O)(=O)N4CCCC4)cc32)cc(OC)c1
 : i	0.82
98	CCOC(=O)c1cnn(Cc2ccccc2Cl)c1N
 : i	1
99	CCOc1ccccc1C(=O)Nc1cc(C(=O)NCCc2ccccc2)ccc1Cl
 : i	2
100	Cc1cccc(C)c1NC(=O)CN(C)CC(=O)Nc1ccccc1Oc1ccccc1
 : i	0.73
101	FC(F)(F)c1cc(C(F)(F)F)c2ccc(N3CCOCC3)nc2n1
 : i	-0.05
102	COc1cc(SC)ccc1C(=O)Nc1ccccn1
 : i	-0.37
103	Cc1ccc2nc(N3CC(C)OC(C)C3)nc(-c3ccccc3)c2c1 (stereo not drawn)
 : i	-0.9
104	O=C(Nc1nc2cc3c(cc2s1)OCCO3)c1ccc([N+](=O)[O-])o1
 : i	-0.01
105	Cc1ccc(OCC(=O)N2CCc3ccccc3C2)c(Br)c1
 : i	0.56
106	COc1ccc(Cl)cc1NC(=O)C/C(C)=N/NC(=O)c1ccccc1Cl
 : i	-0.03
107	O=C(N1CCN(Cc2ccc3c(c2)OCO3)CC1)C(Cl)(Cl)Cl
 : i	-0.4
108	O=C(c1ccco1)N1CCN(C(=S)NC2CC3CCC2C3)CC1 (stereo not drawn)
 : i	-0.7
109	Cc1ccc(S(=O)(=O)N(Cc2n[nH]c(=S)n2-c2ccccc2)c2cccc(Cl)c2)cc1
 : i	-2.5
110	O=C(Nc1nc2ccccc2n1CCN1CCOCC1)c1cn(-c2ccccc2)nc1-c1ccccc1
 : i	-0.04
111	CC(=O)c1ccc(-c2nc3ccccc3n2C)o1
 : i	0.22
112	Cc1c(C(=O)c2ccc(N(C)C)cc2)c2ccccn2c1CCC#N
 : i	-0.77
113	COc1ccc(-c2noc(CSc3nc(-c4ccccc4)cc(=O)[nH]3)n2)cc1
 : i	0.46
114	Cc1c(Cl)cn2c(=O)cc(CN(C)Cc3nc4ccccc4c(=O)[nH]3)nc2c1Cl
 : i	0.02
115	CN(C)c1ccc(/C=N/NC(=O)CNC(=O)c2ccncc2)cc1
 : i	-0.52
116	CSCCC(NC(=O)c1ccccc1Br)C(=O)N1CCCCCCC1 (stereo not drawn)
 : -9.6*	0.33*
117	O=C(c1cccs1)N1CCN(c2nnc(-c3ccccc3)c3ccccc23)CC1
 : -5.9*	-0.32*
118	CC12CC3(C)CC(C)(C1)CC(C(=O)NCC(=O)O)(C2)C3
 : i	0.04
119	C/C(=N\NC(N)=O)c1cc(Cl)cc(Cl)c1O
 : i	-1.5
120	C/C(=C1/SC(N2CCCC2)=NC1=O)c1ccc(Br)cc1
 : i	1.3

# Assay outcomes: PubChem BioAssay, Johns Hopkins Ion Channel Center
